FPRL1 binder – ligands of human FPRL1, also counter-screen for FPR ligands; inhibition, %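 (tested at 6.7 µM)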; FPRL1-expressing cells, fluorescent ligand binding inhibition, flow cytometry; AID 441; actives 0.3% (n = 24,000);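 note: 0% = buffer alone and 100% = receptor blocker peptide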
Target sequence (P25090 whole entry, looked up): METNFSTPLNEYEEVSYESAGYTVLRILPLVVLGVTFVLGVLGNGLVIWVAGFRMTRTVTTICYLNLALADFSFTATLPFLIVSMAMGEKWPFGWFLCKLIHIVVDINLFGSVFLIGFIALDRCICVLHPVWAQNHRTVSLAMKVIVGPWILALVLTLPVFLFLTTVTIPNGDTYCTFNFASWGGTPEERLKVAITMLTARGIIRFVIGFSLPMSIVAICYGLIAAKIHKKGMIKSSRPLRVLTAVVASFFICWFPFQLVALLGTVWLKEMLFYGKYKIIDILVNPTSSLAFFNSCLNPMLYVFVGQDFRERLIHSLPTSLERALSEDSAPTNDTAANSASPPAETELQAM
VCAM-1 down – inhibitors of TNFa-induced VCAM-1 surface display, cell-based, plate reader, pooled HUVEC, TNFa stimulus (AID 454). inhibition, % at 5 µM. HUVEC TNFa-induced VCAM-1 surface immunofluorescence, plate reader; numbers were filed only for top-ranked candidate wells. actives 0.2% (n = 10,000);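 active = compound among top-ranked inhibitors of TNF-induced VCAM-1 adhesion protein staining, with the hit upheld by image or statistical review; inactive = the rest, including hits rejected on review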;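 note: 0% = TNFa with vehicle and 100% = cells without TNFa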
VCAM-1 imaging – suppression of endothelial VCAM-1 upregulation – imaging, high-content imaging, pooled HUVEC, TNFa stimulus (AID 456). HUVEC TNFa-induced VCAM-1 surface expression, immunofluorescence imaging; numbers were filed only for top-ranked candidate wells. one-dose inhibition, % at 5 µM; IC50 in µM for titrated hits. actives 0.2% (n = 10,000);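 active = top tenth filtered wells with inhibition above zero that passed visual or statistical confirmation; inactive = the rest, including hits rejected on review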;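 note: 0% = stimulated vehicle wells and 100% = unstimulated cells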
VCAM-1 up imaging – enhancers of VCAM-1 display on endothelial cells, imaging, high-content imaging, pooled HUVEC, TNFa stimulus (AID 457). actives 0.2% (n = 10,000). Pooled HUVEC, TNFa-induced VCAM-1 immunofluorescence imaging; hits of this screen are not shown here. calls only;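 active = a top-ranked rise in VCAM-1 staining upheld on image or statistical review; inactive = the rest, including candidates rejected on review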;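 note: compounds tested at 5 µM in the well; cells exposed to compound for 24 hours before fixing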
FPR ligand – ligands of human FPR, also counter-screen for FPRL1 ligands | P21462 | actives 0.74% (n = 24,000) | inhibition, %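 (tested at 6.7 µM)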 | FPR-expressing cells, fluorescent ligand binding, flow cytometry | AID 440;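 note: 0% = buffer wells and 100% = receptor blocker peptide wells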
Target sequence (P21462 whole entry, looked up): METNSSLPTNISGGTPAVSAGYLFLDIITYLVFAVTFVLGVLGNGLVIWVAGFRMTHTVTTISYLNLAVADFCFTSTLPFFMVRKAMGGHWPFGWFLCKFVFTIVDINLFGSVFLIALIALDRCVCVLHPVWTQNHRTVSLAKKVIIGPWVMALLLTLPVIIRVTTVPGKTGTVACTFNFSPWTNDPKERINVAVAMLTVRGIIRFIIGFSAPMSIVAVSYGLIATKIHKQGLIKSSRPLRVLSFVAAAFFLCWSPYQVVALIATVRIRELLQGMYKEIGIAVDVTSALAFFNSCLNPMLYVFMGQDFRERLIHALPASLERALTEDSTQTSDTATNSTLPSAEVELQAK
Active calls of the source: *; i = inactive; ? = inconclusive; nt = not tested or not shown.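 Rule for the calls, unless noted: active = mean above 30%; inconclusive = self-fluorescent; inactive = the rest.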 This is a subset; count on the stated rates, not on these rows.

SMILES | VCAM-1 down | VCAM-1 up imaging | FPR ligand | FPRL1 binder | VCAM-1 imaging
CCOC(=O)c1cccc(NC(=O)CN2C(=O)C3C4C=CC(C4)C3C2=O)c1 (configuration not stated) | nt | nt | 2 | 0 | nt
Cc1cc2cc(CNC(=O)NC3CCCCC3)ccc2[nH]1 | nt | nt | 7 | 7 | nt
CC1(C)CC(=O)c2sc(NS(C)(=O)=O)nc2C1 | i | i | 9 | 1 | i
CCOC(=O)NC(CC(=O)O)c1ccc(OCC)cc1 (configuration not stated) | nt | nt | 4 | 4 | nt
O=C(c1ccccc1)c1ccc(N2CCNCC2)cc1 | i | i | -6 | 1 | i
CSc1ccccc1NC(=O)CN(Cc1ccccc1)S(C)(=O)=O | i | i | 0 | -2 | i
CCOC(=O)C1CCCN(C(=O)c2sc3nc(-c4ccccc4)cn3c2C)C1 (configuration not stated) | i | i | 2 | -1 | i
COCCCNc1oc(-c2ccccc2F)nc1C#N | nt | nt | 5 | 4 | nt
CC(=O)N1CCc2cc(C(=O)CN3CCN(C(=O)c4ccco4)CC3)ccc21 | nt | nt | -1 | -4 | nt
COc1ccc(CCNC(=O)c2noc3c2CCCC3)cc1OC | nt | nt | 7 | 1 | nt
O=C(NCc1ccco1)C1CCC(CNS(=O)(=O)c2cccc3cccnc23)CC1 (configuration not stated) | nt | nt | 0 | -3 | nt
COC(=O)CCC(=O)Nc1ccc(NC(C)=O)cc1 | nt | nt | -3 | -8 | nt
O=C(C1CCCN(S(=O)(=O)c2cccs2)C1)N1CCN(C2CCCCC2)CC1 (configuration not stated) | nt | nt | 7 | 4 | nt
Cc1cc(N2CCN(c3ccccc3)CC2)n2nnnc2n1 | nt | nt | 10 | 4 | nt
CCCc1cc(=O)n2[nH]c(-c3ccccc3)cc2n1 | nt | nt | -5 | -1 | nt
Cc1cccc(-n2nc3c(c2NC(=O)CCC2CCCCC2)CS(=O)C3)c1C (configuration not stated) | i | i | 16 | 13 | i
Cc1ccc2[nH]c(=O)c(CN(CCc3ccccc3)Cc3nnnn3CC3CCCO3)cc2c1 (configuration not stated) | i | i | -14 | 0 | i
Cc1ccc(S(=O)(=O)N2CCN(Cc3nc4ccccc4n3C)CC2)cc1 | nt | nt | -4 | -22 | nt
CCc1n[nH]c2c1C(=O)CC(C)(C)C2 | i | i | -14 | 9 | i
CCN(c1ccccc1)S(=O)(=O)c1ccc(F)c(C(=O)O)c1 | nt | nt | -4 | -4 | nt

Following part
SMILES | VCAM-1 down | VCAM-1 up imaging | FPR ligand | FPRL1 binder | VCAM-1 imaging
C=C(C)Cn1c(-c2ccccc2)nc2ccccc21 | i | i | -4 | 5 | i
CCn1nc(C)c(/C=C2\CCCC3=C2OC(N)=C(C#N)C3c2c(C)nn(CC)c2C)c1C (configuration not stated) | nt | nt | 0 | -14 | nt
CCOC(=O)c1cc2n(n1)C(C(F)(F)C(F)(F)F)CC(C)N2 (configuration not stated) | i | i | 3 | -3 | i
O=C(NCc1ccccc1)c1cc(-c2cccs2)on1 | nt | nt | 3 | 2 | nt
N#Cc1c(Nc2ccccc2)c(C=NCCN2CCOCC2)c[nH]c1=O | nt | nt | -5 | 3 | nt
COc1cc(NS(=O)(=O)c2ccc(Br)s2)cc(OC)c1 | i | i | -39 | ? | i
Cc1nnc(SCC(=O)Nc2cccc(C(F)(F)F)c2)[nH]c1=O | nt | nt | 1 | 0 | nt
CCC1CCCCN1C(=O)c1cc(-c2ccc(Cl)c(Cl)c2)on1 (configuration not stated) | nt | nt | -12 | -4 | nt
CCN(CC)C(=O)CSc1nnc(-c2cc(OC)cc(OC)c2)o1 | i | i | 2 | 11 | i
Cc1cc(OCC(O)CN2CCN(CCO)CC2)ccc1C(C)C (configuration not stated) | i | i | 2 | 1 | i
CCCCN(C)CCCNC(=O)c1ccc(N2CCCC2=O)cc1 | nt | nt | -9 | -15 | nt
COCCNC(=O)C1CC(=O)N(C2CCCC2)C1 (configuration not stated) | nt | nt | 4 | -2 | nt
c1ccc(-c2cn3c4c(sc3n2)CCCC4)cc1 | i | i | 10 | -6 | i
CC1(C)O[C@@H]2C[C@H]3[C@@H]4CCC5=CC(=O)C=C[C@]5(C)[C@@]4(F)[C@@H](O)C[C@]3(C)[C@]2(C(=O)CO)O1 | i | i | -6 | 3 | i
Cc1ccc(CNC(=O)C2CCCN(S(=O)(=O)c3cccnc3)C2)cc1 (configuration not stated) | i | i | -5 | -1 | i
CCOC(=O)c1c(C)c(C(=O)NCc2ccccn2)c(C)n1C | nt | nt | 5 | -1 | nt
O=C(CCNS(=O)(=O)c1cccs1)Nc1ccccc1F | i | i | -7 | 0 | i
Cc1cc(=O)c2cc(Cl)ccc2[nH]1 | nt | nt | -1 | -4 | nt
COc1ccc(CNc2nc(SCC(=O)NCc3ccco3)nc3ccccc23)cc1 | i | i | -2 | 3 | i
O=C(CSCc1cnn(-c2ccccc2)c1-n1cccc1)NCCN1CCOCC1 | nt | nt | 5 | 1 | nt

Other results.
SMILES | VCAM-1 down | VCAM-1 up imaging | FPR ligand | FPRL1 binder | VCAM-1 imaging
CC(=O)Nc1ccc(S(=O)(=O)/N=C2\SCCN2S(=O)(=O)c2ccc(NC(C)=O)cc2)cc1 | nt | nt | 2 | -3 | nt
COC(=O)c1ccccc1NC(=O)Cn1cnc2ccc(S(=O)(=O)N3CCC(C)CC3)cc2c1=O | nt | nt | 4 | -2 | nt
Cc1ccc2nc(NC(=O)C3CCCN(S(=O)(=O)c4cccc5nonc45)C3)sc2c1 (configuration not stated) | i | i | -3 | -3 | i
Cc1ccc(C(c2sc3nc(C)nn3c2O)N2CCN(c3ccc(F)cc3)CC2)cc1 (configuration not stated) | nt | nt | 1 | -5 | nt
O=C(Nc1ccc(-c2noc(CCc3ccccc3)n2)cc1)c1ccco1 | nt | nt | 0 | -6 | nt
Cc1onc(-c2ccccc2Cl)c1C(=O)Nc1ccc(-n2nncc2C(C)(C)C)cc1 | nt | nt | 2 | -9 | nt
CC(C)OC(=O)CN1CCN(C2c3ccccc3-c3ccccc32)CC1 | nt | nt | -8 | -18 | nt
CC(C)CN(CC(C)C)S(=O)(=O)N1CCC(C(=O)NCc2cccs2)CC1 | nt | nt | -3 | 1 | nt
Cn1cccc1Cc1nnc(SCC(=O)N2CCCc3ccccc32)n1-c1ccc(F)cc1 | nt | nt | 9 | 4 | nt
CCC(C)C(NCc1cccc(C)c1)C(=O)O (configuration not stated) | nt | nt | -2 | -3 | nt
COc1ccc(CCNC(=O)CN2CCOc3ccccc32)cc1OC | nt | nt | -2 | 1 | nt
O=C(O)CCC(=O)N1CCc2cc(S(=O)(=O)N3CCN(c4ccc(F)cc4)CC3)ccc21 | nt | nt | -5 | 3 | nt
C/C=C(\C)c1nnc(NC(=O)C(C)C)s1 | i | i | -7 | -3 | i
COc1ccc(NC(=O)CSc2nc3ccccc3c(=O)n2CCNC(C)=O)cc1 | nt | nt | 0 | -4 | nt
Cc1ccc(C2CC(=O)NC(SCC(=O)OCc3ccccc3)=C2C#N)o1 (configuration not stated) | nt | nt | 0 | -1 | nt
CCCCN(C)C(=O)c1coc(=O)c2ccccc12 | nt | nt | -2 | -3 | nt
Cc1ccccc1NC(=O)Nc1cccs1 | nt | nt | -9 | -1 | nt
CC(C)CNC(=O)C1CC(=O)OC12CCCCC2 (configuration not stated) | i | i | -1 | -2 | i
COc1ccc(CCN2C(=O)CC(N3CCN(S(=O)(=O)c4ccccc4)CC3)C2=O)cc1 (configuration not stated) | i | i | -2 | 1 | i
CCCOc1ccc(/C(O)=C2/C(=O)C(=O)N(CCCOC)C2c2ccncc2)cc1 (configuration not stated) | i | i | 5 | -6 | i

Fetched one by one from the entries so far:
SMILES | VCAM-1 down | VCAM-1 up imaging | FPR ligand | FPRL1 binder | VCAM-1 imaging
CC(C)CNC(=O)C1CC(=O)OC12CCCCC2 (configuration not stated) | i | i | -1 | -2 | i
COC(=O)c1ccccc1NC(=O)Cn1cnc2ccc(S(=O)(=O)N3CCC(C)CC3)cc2c1=O | nt | nt | 4 | -2 | nt

Additional records:
SMILES | VCAM-1 down | VCAM-1 up imaging | FPR ligand | FPRL1 binder | VCAM-1 imaging
COc1c(C(=O)Nc2c(C)n(C)n(-c3ccccc3)c2=O)ccc2ccccc12 | i | i | -11 | 1 | i
O=C(CSc1nnnn1C1CCCCC1)N1CCc2ccccc21 | i | i | -6 | -6 | i
COC(=O)C1CCN(C(=O)NC(C)(C)C)CC1 | i | i | -3 | -1 | i
Cn1cccc1C1NC(=O)c2c(sc3c2CCC(C(C)(C)C)C3)N1 (configuration not stated) | i | i | -2 | -7 | i
CC1=C(C(=O)Nc2ccccc2C)C(c2ccc(C)o2)N2C(=O)CSC2=N1 (configuration not stated) | i | i | -3 | -1 | i
O=C(NCCN1CCOCC1)c1ccc2c(c1)N(Cc1ccccc1F)C(=O)CS2 | i | i | -2 | -4 | i
COc1ccc(C(=O)Nc2nncs2)cc1S(=O)(=O)N1CC(c2ccccc2)CC1=O (configuration not stated) | nt | nt | 2 | 0 | nt
CC(=O)Nc1c(C(=O)O)[nH]c2ccccc12 | i | i | -3 | -2 | i
CCOc1ccc(N2C(=O)c3cccnc3C2Nc2ccc(Cl)cc2)cc1 (configuration not stated) | nt | nt | 10 | -8 | nt
CCOc1ccc2nc(N3CCCC(C(=O)N4CCN(CC)CC4)C3)sc2c1 (configuration not stated) | nt | nt | -2 | 2 | nt
CCOC(=O)N1CCN(C(=O)c2ccc3nc4ccsc4c(=O)n3c2)CC1 | i | i | 0 | 1 | i
COC(=O)c1ccccc1NC(=O)Cn1ccnc1 | i | i | -5 | -3 | i
CCOCCCNC(=O)c1cc(C)nn1-c1ccccc1 | nt | nt | 5 | -2 | nt
COc1nc(NC(C)(C)C)nc(Oc2ccc(=O)n(C)n2)n1 | nt | nt | -2 | 1 | nt
CCCN1C(=O)C2C(C(=O)Nc3cccc(OC)c3)C3C=CC2(O3)C1C(=O)NC1CCCCC1 (configuration not stated) | nt | nt | -6 | -8 | nt
O=C(Nc1ccc(Cl)cc1C(=O)O)c1ccc2c(c1)C(=O)N(Cc1ccco1)C2=O | i | i | 8 | -2 | i
COCCOC(=O)C1=C(C)OC(N)=C(C#N)C1c1ccc2c(c1)OCO2 (configuration not stated) | i | i | 3 | -1 | i
O=C(CP(=O)(c1ccccc1)c1ccccc1)N1CCCCC1 | i | i | 0 | 0 | i
O=C(NCc1ccccc1Cl)C1CCN(S(=O)(=O)N2CCCCC2)CC1 | nt | nt | 12 | -2 | nt
CCOC(=O)Cn1c(=O)oc2cc(S(=O)(=O)Nc3cc(OCC)ccc3OCC)ccc21 | nt | nt | -6 | -6 | nt

(listing goes on)
SMILES | VCAM-1 down | VCAM-1 up imaging | FPR ligand | FPRL1 binder | VCAM-1 imaging
O=c1[nH]cnc2c1nc(SCc1ccccc1)n2C1OC(CO)C(O)C1O (configuration not stated) | i | i | 7 | 0 | i
COc1cc2c(C(=O)NCCCOC(C)C)cn(CC(C)C)c(=O)c2cc1OC | nt | nt | -3 | 0 | nt
O=C1NC(=O)C(CC(=O)N(Cc2ccco2)C2(C(=O)NC3CCCC3)CCCCC2)N1 (configuration not stated) | i | i | -1 | 9 | i
COc1cccc(C=Nc2ccc3c(c2)OCCO3)c1O | i | i | 2 | 4 | i
COc1ccc(C2=NOC(C(=O)N3CCCc4ccccc43)C2)cc1 (configuration not stated) | nt | nt | 0 | -7 | nt
COc1ccc(CN2CC34C=CC(O3)C(C(=O)O)C4C2=O)cc1 (configuration not stated) | nt | nt | -7 | -4 | nt
CCOc1ccc(CCNC(=O)CCN2C(=O)COc3ccccc32)cc1OCC | nt | nt | 1 | 0 | nt
O=C(NCc1ccc(F)cc1)c1cc2n(n1)C(C(F)(F)F)CC(C1CC1)N2 (configuration not stated) | nt | nt | 0 | -6 | nt
COc1ccccc1-c1cc(C(F)(F)F)nc(NCc2ccco2)n1 | nt | nt | 4 | 3 | nt
O=C(C(Cc1ccccc1)n1cccc1)N1CCN(C2CCCCC2)CC1 (configuration not stated) | nt | nt | 4 | 5 | nt
COc1cccc(C(CC(=O)NCc2ccco2)NS(=O)(=O)c2ccc(C)cc2)c1OC (configuration not stated) | nt | nt | 1 | 1 | nt
COc1cccc(C2CC(c3ccccc3OC)n3nc(N)nc3N2)c1 (configuration not stated) | nt | nt | 1 | -1 | nt
COC(=O)C(NS(C)(=O)=O)(c1c(C)[nH]c2ccccc12)C(F)(F)F (configuration not stated) | nt | nt | 0 | 2 | nt
COC(=O)c1[nH]c2ccccc2c1NC(=O)CN1CCC(C(N)=O)(N2CCCCC2)CC1 | i | i | 0 | 0 | i

Bioassay records from PubChem.
